A1 inh: caspase 3/7 activation in MEF A1-2A-BIM cells, primary screen, A1 inhibitor project, cell-based, luminescence, HTS; 330,000 compounds, 0.066% hits; caspase activation, % (test concentration not listed); Caspase-Glo 3/7 luminescence, 3 h; percent of clofoctol response, vehicle zero;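 active means over half of replicate activation scores above 10%, or exactly half above 10 with the replicate mean above 10; inconclusive means replicate mean below 10 yet half the replicates above 10; inactive means over half of replicates below 10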;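 further: wells of about 30 µL received 50 nL stock; many hits fall short of the cut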
Ecoli rRNA inh: reduced GFP signal of wild-type E. coli, primary screen, bacterial rRNA inhibitor project, GFP/RFP fluorescence, OD600, single point. E. coli WT GFP vs humanized-ribosome RFP mutants, 24 h; stronger effect = lower value; DMSO median 0, no signal -100. GFP signal change (wild-type ribosome), % (no concentration beside the values). 350,000 compounds, 1.6% hits. AID 720706, 2013;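 active means significant combined selectivity score with lowered wild-type GFP, culture density cut under 30%, mutant RFP and density less affected; inactive means any of these conditions unmet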; further: one replicate is shown; some compounds called inactive have numbers as strong as hits
T cruzi inh: inhibitors of intracellular T. cruzi growth, primary screen, luminescence, NIH3T3 host cells; AID 1885, 2009; inhibition, % (concentration not given with the values); T. cruzi beta-gal in NIH3T3, 90 h; 300,000 compounds, 1.4% hits;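 active means mean inhibition across valid replicates above about 55%, limit read from the data; inconclusive means mean below that limit but half or more replicates reach it; inactive means mean below it, under half of replicates reach it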;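 further: signal also drops with host cell toxicity which is not excluded here; 0% = plate median of DMSO wells and 100% = zero luminescence signal; higher percent means less beta-gal luminescence so fewer parasites; stock transfer was 50 nL into about 50 µL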
FGF22 binding: binders of human FGF22 protein, primary screen, FGF22 synaptogenesis inhibitor project, biophysical, thermal shift, single point; Fibroblast growth factor 22 (Homo sapiens), Q9HCT0; recombinant FGF22 thermal shift, SYPRO orange fluorescence; percent of sucrose octasulfate shift, DMSO zero; calls only at 9.99 µM; 340,000 compounds, 1.5% hits;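 active means melting point raised past a set limit in the mean and every replicate; inconclusive means no clear call; three in four hits are not shown here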
Target sequence (Q9HCT0 whole entry, looked up): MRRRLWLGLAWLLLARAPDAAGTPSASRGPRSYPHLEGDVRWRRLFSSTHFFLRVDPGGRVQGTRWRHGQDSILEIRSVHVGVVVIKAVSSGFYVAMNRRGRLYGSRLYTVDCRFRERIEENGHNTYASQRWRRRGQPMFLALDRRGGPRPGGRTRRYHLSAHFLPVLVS
MLL AF4-AF9 inh: inhibitors of AF4 peptide binding to AF9, primary screen, biochemical, AlphaScreen, biotin-AF4 peptide, FLAG-AF9, single point. Protein AF-9 (Homo sapiens), P42568. 350,000 compounds, 0.47% hits. inhibition, % at 10 µM. AID 651704, 2012;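 active means every replicate reaching a set inhibition limit, whatever the replicate mean, cut at about 25% in these data; inconclusive means mean inhibition reaches that limit but some replicates miss it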;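 further: 0% = plate neutral control median and 100% = total signal loss; the record names both 10 and 1 µM as test concentration; the first replicate is given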
Target sequence (P42568 whole entry, looked up): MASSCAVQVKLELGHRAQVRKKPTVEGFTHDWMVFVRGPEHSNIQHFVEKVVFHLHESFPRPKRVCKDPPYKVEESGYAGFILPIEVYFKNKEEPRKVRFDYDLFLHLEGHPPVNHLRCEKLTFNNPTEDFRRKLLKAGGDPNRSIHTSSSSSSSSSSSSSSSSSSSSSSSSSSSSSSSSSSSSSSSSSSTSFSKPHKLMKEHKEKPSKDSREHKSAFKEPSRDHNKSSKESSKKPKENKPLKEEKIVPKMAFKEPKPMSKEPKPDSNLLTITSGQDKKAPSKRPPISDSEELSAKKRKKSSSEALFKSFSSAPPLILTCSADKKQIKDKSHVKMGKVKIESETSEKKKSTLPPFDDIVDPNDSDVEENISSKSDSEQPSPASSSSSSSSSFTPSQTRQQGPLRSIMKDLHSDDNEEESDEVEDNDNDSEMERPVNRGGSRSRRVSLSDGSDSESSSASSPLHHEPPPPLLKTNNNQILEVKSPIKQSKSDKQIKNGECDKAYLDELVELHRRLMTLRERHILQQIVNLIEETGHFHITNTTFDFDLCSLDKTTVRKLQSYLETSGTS
Beta cell apopt: inhibitors of cytokine-induced beta cell apoptosis, primary screen, luminescence; INS-1E cytokine-induced death, ATP luminescence, 48 h; percent of positive-control rescue, neutral wells zero; protection from apoptosis, % (concentration not given with the values); 300,000 compounds, 0.8% hits;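 active means all replicates at 75% or more, or half of them and the mean; inconclusive means half reach 75% but not the mean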;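 further: 0% = cytokine-treated negative control wells and 100% = positive control rescue; higher means more ATP so stronger rescue from cytokine killing; wells of about 40 µL received 100 nL stock; the first replicate is given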
Ecoli growth: E. coli growth inhibition, primary screen, OD600. Escherichia coli growth, 23 h; stronger effect = lower value. OD600 absorbance (test concentration not listed). AID 1053175, 2014. 330,000 compounds, 0.21% hits;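 active means OD600 absorbance below the run mean of sample wells minus 3.6 SD, in any replicate, cut at about 0.56 in these data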;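 further: stock transfer was 300 nL into about 60 µL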
UCH37 DUB inh: inhibitors of human UCH37 deubiquitinase, primary screen, biochemical, Ub-AMC cleavage, fluorescence; Ubiquitin carboxyl-terminal hydrolase isozyme L5 (Homo sapiens), Q9Y5K5; purified proteasome/UCH37; inhibition, % (no concentration beside the values); 330,000 compounds, 0.33% hits;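 active means mean of two replicates above 20%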;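 further: 0% = compound-free wells with enzyme and 100% = wells lacking proteasome; stock transfer was 100 nL into about 20 µL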
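System: Proteasome-associated human UCH37 deubiquitinase; Input: 0.15 nM proteasome in added enzyme buffer; Also added: Ub-AMC substrate from 1 µM stock; Incubation: 30 min compound-proteasome preincubation then 25 min substrate reaction, room temperature; Detection: fluorescence, ex 355 nm, em 460 nm; Read-out: % inhibition of Ub-AMC cleavage fluorescence; Benchmarks: no-proteasome and no-compound wells.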
Ecoli rRNA inh OD600: further read-out of Ecoli rRNA inh, marked with its call; OD600 change, %; measured here: OD600 growth;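 optical density of the mix in the first replicate; 0 = DMSO median and -100 = no signal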
Ecoli rRNA inh RFP: second read-out of Ecoli rRNA inh, no call of its own (marks repeat the call); RFP signal change, %; measured here: RFP humanized mutant strains;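 first replicate; 0 = DMSO median and -100 = no signal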
The depositor's hits bear a star; i = inactive; ? = inconclusive; . = not tested or not shown. The list is partial; the hit share may differ from the screen's.

SMILES	A1 inh	Ecoli rRNA inh	Ecoli rRNA inh OD600	Ecoli rRNA inh RFP	T cruzi inh	FGF22 binding	MLL AF4-AF9 inh	Beta cell apopt	Ecoli growth	UCH37 DUB inh
S=c1[nH]ccn1CCc1ccccc1	1.0	15	17	0.1	-3	i	-0.6	-13	0.71	-2.5
CCOC(=O)C1=C(c2ccccc2)NC(=O)NC1c1cc(OCC)c(O)c([N+](=O)[O-])c1 (centres undefined)	1.0	0	-2	-3.4	-4	i	-0.1	-5	0.63	7.0
Cc1cc(C(=O)CSc2ncnc3ccccc23)c(C)n1C1CC1	0.0	10	13	8.2	.	i	-1.9	18	0.71	0.9
COc1ccc(OC)c(NC(=O)CN2C(=O)NC3(CCOc4ccccc43)C2=O)c1 (centres undefined)	1.7	.	.	.	-18	.	.	-4	0.71	-1.4
O=C(CN1CCN(Cc2ccccc2Cl)C1=O)NCc1ccccn1	0.9	3	4	1.5	-3	i	6.5	-3	0.69	1.3
Cc1cc(C)nc(SCc2nnc(SCC(=O)Nc3nc(-c4ccccc4)cs3)n2-c2ccccc2)n1	-0.6	.	.	.	23	.	.	6	0.75	2.8
O=C(c1c[nH]c2ccccc12)C(F)(F)F	0.8	-18	-22	-5.6	-8	i	0.5	4	0.59	-0.3
CCCCCN1N=C(C)CC1=O	-0.2	12	6	-3.3	-13	i	-1.5	-3	0.7	-0.7
O=[N+]([O-])c1cccnc1Oc1ccc(F)cc1F	0.6	2	4	-4.0	2	i	1.1	-3	0.61	1.9
O=C(Nc1ccnn1C1CCN(C(=O)c2cccc(Cl)c2)CC1)C1CCOC1 (centres undefined)	-0.6	-1	3	-0.2	-6	i	-7.0	-6	0.71	3.5
Cc1sc2nc(CSCC(=O)Nc3ccc(OC(F)F)cc3)[nH]c(=O)c2c1C	-0.2	4	4	1.7	-2	.	-0.1	5	0.72	-6.0
CN(Cc1ccccc1)C(=O)c1cccc(C(=O)N(C)Cc2ccccc2)c1	0.3	-8	-9	3.8	5	i	1.0	2	0.64	0.5
COc1ccc(/C(O)=C2\C(=O)C(=O)N(c3cc(C)on3)C2c2ccccc2OC)cc1 (centres undefined)	0.8	.	.	.	-8	.	.	-7	0.74	5.9
NC(=O)CC(NC(=O)c1ccccc1)c1ccc(N2CCCCCCC2)c([N+](=O)[O-])c1 (centres undefined)	0.1	-37	-57	-7.2	-17	i	6.3	-4	0.69	5.9
CC(=O)NC(Cc1ccccc1F)C(=O)NC1CCN(C(=O)Nc2ccc(C)cc2)CC1 (centres undefined)	0.1	6	12	-0.7	1	i	-1.2	-1	.	.
CC1(C)CC2CC(C)(CN2C(=O)COC(=O)c2ccccc2C(F)(F)F)C1 (centres undefined)	1.7	.	.	.	.	i	-3.9	4	.	.
Cc1ccc(/C=N/NC(=S)NCCc2ccccc2)s1	-0.8	9	11	-1.9	10	i	-0.4	-3	.	.
COC(=O)c1cc(C(=O)OCC(=O)N(C)C2CCS(=O)(=O)C2)cc([N+](=O)[O-])c1 (centres undefined)	1.0	18	12	3.0	-19	.	-2.8	-2	0.7	2.6
COc1cccc(-n2nnnc2SCC(=O)Nc2ccc(NC(C)=O)cc2)c1	0.3	7	4	2.0	0	i	-0.3	-2	0.7	6.1
CS(=O)(=O)N(CC(=O)Nc1cc(Cl)ccc1Cl)c1ccccc1	0.9	-8	-19	8.2	3	i	2.6	-3	0.67	3.3
COc1ccccc1NC(=O)N1CCN(c2ccnc3cc(Cl)ccc23)CC1	0.7	-15	-20	-1.7	1	.	0.6	-14	0.6	2.6
O=[N+]([O-])c1ccccc1N/N=C\c1ccccc1F	-8.0	15	5	3.5	-5	i	3.5	7	.	.
CCOc1ccccc1N(CC(=O)NCc1ccccc1)C(=O)CCC(=O)Nc1cc(C)ccn1	-1.0	18	7	1.9	29	.	-0.9	2	0.68	3.3
CCCCN(CCCC)CCCNC(=O)CC1Oc2ccc(C)cc2NC1=O (centres undefined)	-0.4	12	-4	-1.4	25	i	?	-4	0.66	5.4
COc1ccc(-c2ccc(CO)o2)cc1N	0.0	-2	-7	-2.6	-22	i	3.6	2	0.72	-16
CC(C)n1c2ccccc2c2cc([N+](=O)[O-])ccc21	0.4	5	18	9.0	7	i	5.1	-4	.	.
CCn1c(=NC(=O)C2COc3ccccc3O2)sc2c(C)ccc(OC)c21 (centres undefined)	1.0	9	7	-6.2	36	.	7.5	8	0.72	-2.8
CN1C(=O)Cc2cc(S(=O)(=O)NCCc3ccccc3)ccc21	-0.8	2	1	-0.1	-3	i	-3.1	-2	0.66	3.3
CCC(C)(C)NC(=O)C(c1cccc(OC)c1)N(C(=O)c1ccn[nH]1)c1cccc(OC)c1 (centres undefined)	-0.6	.	.	.	7	.	.	-10	0.69	5.7
CC(=O)NC(CCS(C)(=O)=O)C(=O)Nc1ccc2c(c1)OCO2 (centres undefined)	0.7	5	16	-2.4	-17	i	9.5	-7	0.73	1.8
COc1ccc(C2c3ccc4ccccc4c3Oc3ncn(CCCO)c(=N)c32)cc1 (centres undefined)	-0.1	-15	-28	10	27	i	10	8	0.65	4.3
O=c1ccc2cc(S(=O)(=O)NCc3ccccc3)ccc2[nH]1	.	0	15	-3.2	-1	i	-1.8	-3	0.77	1.6
COc1ccc(/C=N/NC(=O)c2ccncc2)cc1Cn1nc([N+](=O)[O-])c(Br)c1C	0.1	-10	-17	-4.9	19	i	3.5	-5	.	.
Cc1ccc(C(=O)Nc2ccccc2C(=O)N2CCCCCC2)cc1	1.6	1	-2	0.0	-24	i	-3.9	-3	0.67	-0.4
O=C(Nc1cccc([N+](=O)[O-])c1)N1CCCCCC1	0.4	-6	9	-0.4	4	i	-0.6	0	0.65	4.9
CC(C)C(NS(=O)(=O)c1ccccc1)C(=O)OCc1cc([N+](=O)[O-])cc2c1OCOC2 (centres undefined)	-0.5	.	.	.	5	.	.	-4	0.69	5.6
COC(=O)C1CC(O)CN1S(=O)(=O)c1cccs1 (centres undefined)	-0.8	-5	-5	-1.9	-12	i	-0.6	-2	0.64	1.4
NC(=O)CSc1nc2ccccc2c(=O)n1Cc1ccccc1	0.0	10	9	-4.1	-28	i	-3.1	1	0.69	1.2
Cc1ccc(-n2nc3c(c2NC(=O)c2c(F)cccc2Cl)CS(=O)(=O)C3)cc1C	0.5	-3	-12	2.5	1	i	0.1	-5	0.67	-2.0
O=C(CCCC(=O)Nc1cccnc1)Nc1cccnc1	0.1	.	.	.	0	.	.	1	0.73	-4.9
COC(CNS(=O)(=O)c1ccc(S(=O)(=O)N2CCCC2)cc1)OC	0.0	2	6	0.2	6	i	-2.4	8	0.67	-0.3
CC(C)CN1CCC(=O)N([C@H](CSc2ccccc2)Cc2ccccc2)CC1	0.1	-27	-45	-6.4	15	i	2.4	-11	.	0.9
Cc1cc(OCC(=O)OCC(=O)Nc2cc(S(=O)(=O)N3CCOCC3)ccc2Cl)ccc1Cl	0.3	4	12	-2.3	.	i	-3.9	-5	0.69	4.8
COC(=O)NNC(=O)C(c1ccccc1)c1ccccc1	1.1	-10	2	-5.2	-8	i	6.0	-3	0.68	-3.1
COc1ccc(-c2noc(-c3cccc(OC)c3OC)n2)cc1OC	-8.1	0	14	0.7	-1	i	-1.7	.	0.77	1.3
Cc1c(Cl)cccc1NC(=O)NN1CCN(C)CC1	-0.1	12	5	-0.2	16	i	-0.1	-2	0.66	1.9
Cc1ccc(N2C(=O)C3C(C2=O)C(C(=O)c2ccc(Cl)cc2)N2CCCC32)cc1 (centres undefined)	-1.0	.	.	.	-6	.	.	-6	0.72	4.0
COC(=O)c1cc(C)nc(N)c1C#N	0.6	.	.	.	-4	.	.	2	0.71	i
CN(c1ccccc1)c1nc(N)c([N+](=O)[O-])c(Nc2cccc(F)c2)n1	?	2	4	-3.7	9	i	1.2	1	0.68	5.2
COc1cccc(N=c2oc3c(C)ncc(CO)c3cc2C(N)=O)c1	0.1	.	.	.	13	.	.	4	0.65	2.3
COc1cc(-c2nnc(SCC(=O)N(Cc3ccccc3)C(C)(C)C)o2)cc(OC)c1OC	0.6	.	.	.	26	.	.	11	0.69	0.8
CCOc1ccccc1NC(=O)CN1CCC(C(=O)c2ccc(OC)cc2)CC1	0.5	-9	-19	0.1	12	i	-6.2	-4	0.67	3.2
COC(=O)c1cc(-c2cccs2)nc2ccccc12	0.7	.	.	.	6	.	.	.	0.67	-218
Cc1ccnc(NC(=O)C2CCN(S(=O)(=O)c3cccc(C(F)(F)F)c3)CC2)c1	0.1	1	4	3.4	7	i	-0.2	.	0.7	2.3
Cc1ccc(NC(=O)COC(=O)c2ccc(OCc3c(C)noc3C)cc2)cc1S(=O)(=O)N1CCOCC1	-0.3	.	.	.	-13	.	.	-11	0.74	0.8
Cc1[nH]c2ccccc2c1C(=O)COC(=O)C1CC(=O)N(Cc2ccco2)C1 (centres undefined)	-0.2	.	.	.	-4	.	.	-7	0.7	3.5
